Source: PubChem BioAssay (National Center for Advancing Translational Sciences (NCATS))
NPR1 antag – blocks ANP-stimulated signaling of human Npr1 receptor; HEK293 hNpr1 GloSensor cGMP, ANP-stimulated luminescence; Potency, µM (series often up to 46.3 µM), for inactives: at the highest dose activity change, negative = inhibition, most hits filed as inhibitors; 1.6% of 76,000 active; AID 1347048; active = well fitted inhibition curve with a large enough effect; inconclusive = small, poorly fitted or top-dose-only effect; inactive = no such curve, though single readings can be large or run the other way;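 note: nearly all actives have a fitted effect of over 60% in size; nearly all hits also lower the signal before the agonist is added; a reference antagonist and vehicle were the controls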
Target sequence (P16066 whole entry, looked up): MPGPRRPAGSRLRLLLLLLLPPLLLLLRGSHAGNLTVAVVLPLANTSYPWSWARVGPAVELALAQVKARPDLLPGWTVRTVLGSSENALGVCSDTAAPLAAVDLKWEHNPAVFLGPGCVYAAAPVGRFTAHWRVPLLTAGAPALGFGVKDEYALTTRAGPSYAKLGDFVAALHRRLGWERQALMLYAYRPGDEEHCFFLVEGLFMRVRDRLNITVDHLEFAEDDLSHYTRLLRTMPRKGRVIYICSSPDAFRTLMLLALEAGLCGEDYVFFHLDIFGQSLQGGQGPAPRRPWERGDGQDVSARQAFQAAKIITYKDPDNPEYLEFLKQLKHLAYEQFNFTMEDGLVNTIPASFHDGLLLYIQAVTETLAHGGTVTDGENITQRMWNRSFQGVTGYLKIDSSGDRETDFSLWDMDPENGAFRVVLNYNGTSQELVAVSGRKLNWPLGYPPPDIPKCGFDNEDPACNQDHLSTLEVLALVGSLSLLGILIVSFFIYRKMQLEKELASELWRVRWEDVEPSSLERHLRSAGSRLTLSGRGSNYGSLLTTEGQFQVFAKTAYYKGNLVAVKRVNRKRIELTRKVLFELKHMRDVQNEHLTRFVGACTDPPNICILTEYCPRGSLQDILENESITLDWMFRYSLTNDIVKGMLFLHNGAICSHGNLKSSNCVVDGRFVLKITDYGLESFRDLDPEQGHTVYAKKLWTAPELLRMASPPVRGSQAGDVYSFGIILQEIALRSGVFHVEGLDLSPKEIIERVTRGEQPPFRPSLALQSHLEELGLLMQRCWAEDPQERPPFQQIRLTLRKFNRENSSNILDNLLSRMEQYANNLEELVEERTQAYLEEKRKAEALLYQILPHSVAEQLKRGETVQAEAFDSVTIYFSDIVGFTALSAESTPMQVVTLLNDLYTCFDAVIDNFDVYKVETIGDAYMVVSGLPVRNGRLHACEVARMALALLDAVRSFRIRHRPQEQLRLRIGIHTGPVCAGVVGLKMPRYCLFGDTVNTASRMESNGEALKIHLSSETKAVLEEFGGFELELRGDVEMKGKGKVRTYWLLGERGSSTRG
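Compound pre-incubated 30 min at room temperature on GloSensor-loaded HEK293 cells stably carrying hNpr1 and the pGS-40F cGMP biosensor. Stimulation uses hNppA at 0.1 nM final; luminescence is taken at baseline and 20 min post-agonist.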
* marks the source's active call; other numbers are inactive results; ? = inconclusive; [ ] = dose if it differs, or a comment. % is set by controls: 0 for no effect and ±100 for the full control effect; potency is the fitted concentration of half-maximal effect.

SMILES,NPR1 antag
O=C(CN1C(=O)NC(c2ccccc2Cl)C2=C1COC2=O)Nc1ccccc1 (configuration not stated),-12%
O=C(NCc1ccc(F)cc1)N1CCN(C(=O)N2CC3CC(C2)[C@H]2CCCC(=O)N2C3)CC1 (some centres not stated),4%
CN(C)[S+](=O)([O-])c1ccc2c(c1)OCCN(Cc1cccnc1)C2,-16%[70.6 µM]
COCCN1CC(CO)C2(CCN(Cc3ccc(Cl)cc3F)CC2)C1 (configuration not stated),-2%
COCC1CN(C)CC12CCN(C(=O)c1nccc3ccccc13)CC2 (configuration not stated),-18%
CCCCc1nn(CC(=O)N2CCSCC2)c(=O)n1CCc1ccccc1,-5%
COC1C(=O)N(c2cccc(F)c2)C12CCN(S(=O)(=O)Cc1ccccc1)CC2 (configuration not stated),-3%
CCOc1ccc(C(=O)N2CCCC(c3noc(COC)n3)C2)cc1 (configuration not stated),-2%
COC(=O)c1cccc(NC(=O)C2CCc3sc(C(=O)N4CCOCC4)cc3C2)c1 (configuration not stated),-21%
Cc1nnc2n1CCC(NC(=O)c1cc(C3CC3)[nH]n1)CC2 (configuration not stated),8%
COc1ccc(-c2noc(-c3cccn3CC(=O)Nc3ccc(N(C)C)cc3)n2)cc1F,-13%
Cc1cc(Cl)ccc1OCC(=O)N1CCC([C@@H]2CNC[C@H]2CO)CC1,0%
N#Cc1ccc(CN2CCC3(CC2)CC(=O)c2ccccc2O3)cc1,28µM*
CCc1ccc(NC(=O)CN2C(=O)NC3(CCC(C)CC3)C2=O)cc1 (configuration not stated),4%
CCN1Cc2nc(OC)c(CNC(=O)[C@H](O)C3CCCCC3)cc2C1=O,3%
Cc1cn2nc(C(=O)NCc3ccc(F)cc3F)cc2c(N(C)Cc2ccccc2)n1,2%
COc1ccccc1CN1CCc2nc(C(=O)Nc3ccc(Cl)cc3)oc2CC1,13µM*
COc1cccc(CCC(=O)NCc2nnc3cc(-c4nc(C5CC5)no4)ccn23)c1,10%
COc1ccc(NC(=O)C2CCN(C(=O)c3ncn4c3COC(c3ccccc3)C4)CC2)cc1 (configuration not stated),1%
CN1CC(=O)N(C2CCCC2)Cc2c1ncnc2N1CCOCC1,0%[70.6 µM]
CNc1nccc(N2CCC(CC(=O)N3CCN(CCC#N)CC3)CC2)n1,4%
Cc1ccc(OCC(=O)N2C[C@@H](Oc3ccccc3)C[C@@H]2C(=O)N2CCOCC2)cc1,-3%
COc1cccc(CCC(=O)N2CC3CC(C2)[C@H]2CCCC(=O)N2C3)c1 (some centres not stated),0%
CN1CCC(N2CCN(S(=O)(=O)c3ccccc3F)CC2)C1=O (configuration not stated),2%
CN(C)CCCOCC1(C)COc2ccc(C(=O)Nc3ccccc3)cc2N1 (configuration not stated),-1%[70.6 µM]
C=CCNC(=O)N[C@H]1C[C@@H](C(=O)N[C@H](Cc2c[nH]c3ccccc23)C(N)=O)N(C(=O)C=C(C)C)C1,1%
Cc1ccc(C(=O)N2CCCC(c3nc(-c4cccnc4)no3)CCNC(=O)CC2)s1 (configuration not stated),2%
COc1ccc(CN2CC(C(=O)NCc3ccncc3)C3(CCOCC3)C2)cc1 (configuration not stated),0%
COCC(=O)N[C@H]1CC[C@]2(C)CCC([C@H](C)C(=O)NCc3ccc4c(c3)OCO4)[C@H](O)[C@H]2[C@@H]1C (some centres not stated),12%
CN1C(=O)CCC2(CNC(=O)Nc3ccc4c(c3)OCCO4)CCCC=C12 (configuration not stated),-14%

3 entries from above, ordered by the number in NPR1 antag, low to high:
SMILES,NPR1 antag
CN1C(=O)CCC2(CNC(=O)Nc3ccc4c(c3)OCCO4)CCCC=C12 (configuration not stated),-14%
COC1C(=O)N(c2cccc(F)c2)C12CCN(S(=O)(=O)Cc1ccccc1)CC2 (configuration not stated),-3%
CCc1ccc(NC(=O)CN2C(=O)NC3(CCC(C)CC3)C2=O)cc1 (configuration not stated),4%

Other entries.
SMILES,NPR1 antag
O=C(CC1CCCC1)N1CCC(c2noc(-c3cnccn3)n2)C1 (configuration not stated),-11%
CCNC(=O)N1CCC(c2noc(COCCOC)n2)CC1,2%
Cn1cnc2cc(-c3cccc(F)c3)cc(C(=O)NCc3cccnc3)c21,6%[70.6 µM]
COc1ccc(CN2CC3(CCN(C(=O)c4cccs4)CC3)C2=O)cc1,11%
COCc1ccc(C(=O)N2CC[C@@H](NC(=O)c3ccncc3)[C@H](O)C2)o1,1%
Cc1ccc(C2Cn3nnc(-c4noc(COc5ccc(F)cc5)n4)c3CO2)cc1 (configuration not stated),0%
CCCNC(=O)C1COC2(CCC(C)CC2)N1C(=O)c1ccccc1Cl (configuration not stated),-2%
CC(C)c1ccc(N2C(=O)N[C@@H]3CCN(C(=O)CC4(CC(=O)O)CCCC4)[C@@H]3C2=O)cc1,0%
CCN1CCN(CC(O)COc2cccc(CNCCCc3scnc3C)c2)CC1 (configuration not stated),5%
O=C(c1ccccc1F)N1CCn2c(nnc2[C@@H]2C[C@@H](O)CN2Cc2cccnc2)C1,11%
COc1cc(F)ccc1-c1cc2c(nc1-c1ccccc1)nc(C(=O)NCCN(C)C)n2C,-4%
Oc1cccc(CN2CCCC23CCN(c2ccc(C(F)(F)F)cn2)CC3)c1,-14%
COc1ccc(-c2noc(-c3cccn3CC(=O)Nc3ccc(C)cc3)n2)cc1F,-2%
COc1ccc(N2CCN(C(=O)c3cc4c(s3)CCN(C(C)=O)C4)CC2)cc1,?
Cc1ccccc1-c1nc(-c2c(C)noc2C)cc2cc(CN(C)C)oc12,4%[70.6 µM]
COc1ccc2nc3n(c2c1)[C@@H](CNC(=O)C1CCOCC1)COC3,1%[70.6 µM]
COc1cccc(C(=O)N2CCN(C)C3(CCNC(=O)CC3)C2)c1C (configuration not stated),13%
Cc1ccc(C(=O)N2CCc3nnc([C@@H]4C[C@@H](O)CN4C)n3CC2)cn1,-12%
Cc1cc(C[C@@H]2COC[C@@H]2NC(=O)c2cc(-c3ccccc3O)n[nH]2)on1,4%
NC(=O)c1ccc(OC2CCN(C(=O)C3CCC3)CC2)nc1,-23%
Cc1cc(C)c(NC(=O)Cn2c(N(C)Cc3ccccc3)nc(C)cc2=O)c(C)c1,-21%
COc1ccc(-c2cn(C)c(=O)n3cc(COc4ccc(Cl)cc4)nc23)cn1,4%[70.6 µM]
CS(=O)(=O)N1CCCN(Cc2cccc(F)c2)CCNC(=O)CC1c1ccccc1 (configuration not stated),-3%
O=C1NCCCCCCN(C(=O)CN2CCCCCC2)[C@H]2C[C@H](c3nc(-c4cccnc4)no3)C[C@@H]12,-4%
COCC(=O)NC[C@H]1CCN(Cc2cccs2)C[C@H]1N(C)C,2%
CSCc1noc(Cn2nc(-c3ccccc3)c3ccccc3c2=O)n1,7%
Cc1nc2c(c(-c3ccc(O)cc3)n1)CN(Cc1cccnc1)CC2,-8%[70.6 µM]
Cc1cnc(CC2CCN(S(=O)(=O)c3cccs3)C2)n1CC1CC1 (configuration not stated),3%
O=C(NCC(F)(F)F)C1CN(c2ccccc2)C(=O)N1 (configuration not stated),18%[70.6 µM]
CCOc1ccccc1-c1nccn1C1COc2ccccc2C1 (configuration not stated),-11%

Looked up above.
Cc1cc(C[C@@H]2COC[C@@H]2NC(=O)c2cc(-c3ccccc3O)n[nH]2)on1 @ NPR1 antag: 4%
COc1cccc(C(=O)N2CCN(C)C3(CCNC(=O)CC3)C2)c1C (configuration not stated) @ NPR1 antag: 13%
Cc1cnc(CC2CCN(S(=O)(=O)c3cccs3)C2)n1CC1CC1 (configuration not stated) @ NPR1 antag: 3%
CC(C)c1ccc(N2C(=O)N[C@@H]3CCN(C(=O)CC4(CC(=O)O)CCCC4)[C@@H]3C2=O)cc1 @ NPR1 antag: 0%

Of the compounds above, 2 have a cyano group.
SMILES,NPR1 antag
N#Cc1ccc(CN2CCC3(CC2)CC(=O)c2ccccc2O3)cc1,28µM*
CNc1nccc(N2CCC(CC(=O)N3CCN(CCC#N)CC3)CC2)n1,4%

Remaining list, next part:
compound | NPR1 antag
CN(C)C(=O)c1ccc(OC2CCN(C(=O)c3ccccc3C(F)(F)F)CC2)nc1 | 0%
COc1nc2c(cc1CNC(=O)C1CCCO1)C(=O)N(CCc1ccccn1)C2 (configuration not stated) | 1%
COC[C@@H]1CN(C(=O)CCn2nc(C)cc2C)C[C@H]1c1ccncc1 | 2%
COCC(=O)N1CCC2(CC1)CC(=O)N(c1ccccc1)c1ccccc1O2 | 0%
COCCCNc1nc(-c2c(C)noc2C)cc2cc(CN(C)C)oc12 | 4%[70.6 µM]
COCCn1ncc(N2CCCC(CC(=O)O)C2)cc1=O (configuration not stated) | 4%
CSCC(=O)N1C[C@@H](NC(=O)Nc2cccc(SC)c2)C[C@H]1C(=O)N[C@H](Cc1c[nH]c2ccccc12)C(N)=O | -3%
O=C(NCCc1ccccc1)N1CCC(c2noc(-c3cccnc3)n2)C1 (configuration not stated) | 2%
O=C(NCc1ccncc1)C1CN(S(=O)(=O)c2cccs2)CC12CCCCC2 (configuration not stated) | -3%
CC1=C[C@@H](CNC(=O)CC(C)(C)CC(=O)O)[C@H](C(C)C)C[C@H]1Cc1nc2ccccc2n1C | 7%
CC(C)N[C@H]1C[C@@H](Cc2cc(CC3CCCCC3)on2)C1(C)C | 8%[70.6 µM]
Cc1ccc(F)c(C(=O)N[C@H](C2CCNCC2)C2CC(O)C2)c1Cl (some centres not stated) | 9%
CC(C)c1ccc(CC(=O)N2CCCc3ncc(C(=O)NCCOc4ccccc4)cc32)cc1 | ?
CCn1cc(CN2C[C@@H](COc3ccccc3)[C@H](C(N)=O)C2)c(C)n1 | 4%
CC(C)c1noc(-c2ccn3c(CNC(=O)c4ccc(N(C)C)cc4)nnc3c2)n1 | 0%
COc1cccc(S(=O)(=O)N2CCCC(c3nc(C(C)C)no3)CCNC(=O)CC2)c1 (configuration not stated) | 6%
Cn1ccnc1CN1C(=O)CO[C@H](c2ccc(NS(=O)(=O)Cc3ccccc3)cc2)[C@H]1CO | 4%
Cc1noc(C2CCCCCN2C(=O)COc2ccc(F)cc2)n1 (configuration not stated) | 3%
COc1ccc(-c2noc(CC3CCN(C(=O)CC4CCCCC4)CC3)n2)cc1 | 6.3µM*
CCn1cc(S(=O)(=O)NCC2CNCCOC2)cn1 (configuration not stated) | -2%

2 compounds picked at random from the list so far, as already listed:
compound | NPR1 antag
Cc1nc2c(c(-c3ccc(O)cc3)n1)CN(Cc1cccnc1)CC2 | -8%[70.6 µM]
COc1ccc(N2CCN(C(=O)c3cc4c(s3)CCN(C(C)=O)C4)CC2)cc1 | ?

(list continues)
compound | NPR1 antag
O=C(c1ccc(F)cc1)N1CC2CC(C1)[C@H]1CCCC(=O)N1C2 (some centres not stated) | -1%
O=C(NC1CCCCC1)[C@@H]1C[C@@H](O)CN1C1CCN(C(=O)c2cc(F)ccc2F)CC1 | 2%
COc1ccc(CN2CCc3nc(C4CC4)nc(-c4ccc(O)cc4)c3C2)cc1 | 11%
COc1cccc(OC)c1-c1cccc(C(=O)c2nccn2C)c1 | -1%
COCC(=O)N[C@H]1CCN(C(=O)COC)[C@H](C(=O)N[C@H](Cc2c[nH]c3ccccc23)C(=O)OC)C1 | 0%
O=C(Nc1ccccc1)c1ccc2c(c1)n(Cc1cccc(F)c1)c(=O)c1ccnn12 | -5%
CC(C)c1nc(CN(C)C(=O)c2csc3nc(-c4ccc(F)cc4)cn23)no1 | 0%
CCc1noc(C)c1C(=O)N1CC[C@@]2(O)CCN(S(C)(=O)=O)C[C@H]2C1 | 6%
COc1ccccc1C(=O)N1CCc2[nH]nc(C(=O)NCCCc3ccccc3)c2C1 | -6%
Cc1noc(-c2cn(C3CCN(C(=O)c4ccccc4)C3)nn2)n1 (configuration not stated) | 3%
Cc1ccc(N2CCN(C(=O)C3CC(=O)N(c4n[nH]c5cccc(F)c45)C3)CC2)c(C)c1 (configuration not stated) | 1%
COc1ccc(N2C(=O)C3(CCCCC3)C2C(=O)N2CCN(C(C)=O)CC2)cc1 (configuration not stated) | 4%
CCNC(=O)N(C1CC1)C1CCOC2(CCN(C(=O)c3ccc4nc[nH]c4c3)CC2)C1 (configuration not stated) | 1%
CCCS(=O)(=O)N1CCN(C2CCN(CCOC)C2=O)CC1 (configuration not stated) | 2%
Cc1cccc(OCC(=O)N2CCC[C@H]2c2nc(-c3ccc(F)cc3)no2)c1 | -6%
COc1cc(Cl)ccc1C(=O)N1CC[C@@](C)(O)[C@@H](O)C1 | 3%
COc1cc(NC(=O)CN2C(=O)NC3(CCOCC3)C2=O)cc(OC)c1 | 2%
c1ccc(-n2nccc2CN2CCC3(CCNCC3)C2)cc1 | 0%
Cc1cccc(C(C(=O)O)N2CCC(C(=O)N3CCCC3)CC2)c1C (configuration not stated) | 4%
O=C1NCCOCCCN(C(=O)COc2ccccc2)[C@H]2CCCC[C@@H]12 | 4%
Cn1c(CNC(=O)Cn2nc3c(cc2=O)CCCC3)nc2ccccc21 | 3%
COc1ccc(C(=O)N[C@@H]2CCC[C@@H]2C(=O)NCc2ccc3c(c2)OCO3)cc1 | -4%
COc1ccccc1Oc1ncccc1CNC(=O)C1CCOCC1 | 9%
CCC(=O)N(C1CCOCC1)C1CCN(S(=O)(=O)c2ccc3c(c2)CCCC3)CC1 | 1%
O=C1CC(c2noc(-c3ccccc3)n2)CN1c1ccc(Cl)cc1 (configuration not stated) | -1%
CS(=O)(=O)N1CCCC1C(=O)Nc1ccc(-c2cccc(F)c2)cc1 (configuration not stated) | 3%
O=C(N[C@H]1CO[C@H]2[C@@H]1OC[C@@H]2n1cc(CC2CCCCC2)nn1)c1ccc(C(F)(F)F)cc1 | -22%
CCC(C)NC(=O)C1COC2(CCN(C(=O)c3ccc(F)cc3)CC2)N1C(=O)c1ccccc1 (configuration not stated) | -4%
CN1CCN(c2nc3c(c(=O)[nH]2)CCN(Cc2cccc(C(F)(F)F)c2)CC3)CC1 | 1%

Only part of the results is shown, so the mix of outcomes need not match the whole.
